# Screening results: PubChem, several laboratories
# Env fusion inh: blocks HIV Env-driven cell-cell fusion | HeLa-JRFL Env/CEM21 cell fusion, luciferase | 1.1% of 360,000 active | inhibition, % at 12.3 µM;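 active = mean replicate inhibition score of at least 50 and every replicate individually at or above 50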;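 also: 0% = plate neutral controls and 100% = maraviroc near 300 nM; one replicate is shown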
# MT1-MMP act inh: MT1-MMP (human) activation inhibition; HT1080 RFP-PRO-GFP cells, GFP/RFP ratio fluorescence, overnight; percent of plate control window, DMSO zero; GFP/RFP ratio change, % at 20 µM; 0.061% of 360,000 active; AID 651647;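 active = GFP/RFP ratio change of at least 30% with cell ATP level not reduced by more than half and red fluorescence within 50% of control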; also: strong numbers were not always called active
#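 Material: RFP-PRO-GFP reporter HT1080 cells. Dosing: single-point 20 µM compound, 1% DMSO. Controls: DMSO and RFP-L50D-GFP cell wells. Timing: cells overnight before dosing, compound overnight, 37 °C, 5% CO2. Measure: GFP/RFP fluorescence ratio.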
# PABP polyA inh: blocks human PABP binding to poly(A) RNA. P11940. fluorescence polarization. inhibition, % at 35 µM. 1% of 290,000 active. AID 2014;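 active = 50% or more with normal probe brightness, or confirmed in later tests; about a fifth of its hits are not listed in these tables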;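 also: calls also rest on retests at 20 µM and on dose response follow-up; controls were probe without protein and protein plus probe with vehicle; some compounds called inactive have numbers as strong as hits; many hits fall short of the cut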
# UUG fidelity: yeast start codon fidelity modulation. activity score, % at 18.7 µM. 0.13% of 350,000 active. S. cerevisiae UUG-firefly luciferase reporter, luminescence/redox ratio;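 active = replicate mean at a twofold rise or more, about +100% in these data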;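 also: firefly luciferase made from a UUG start codon reports start codon fidelity; reporter light over untreated wells divided by growth signal over untreated wells; some hits fall short of that in this replicate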
# eIF4H inh: inhibitors of RNA binding by human eIF4H. Q15056. eIF4H fluorescence polarization binding assay. inhibition, % at 35 µM. 0.94% of 290,000 active;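 active = 50% or more with normal probe brightness, or confirmed in later tests; about a fifth of its hits are not listed in these tables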;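 also: calls also rest on retests at 20 µM and on dose response follow-up; 0% = protein and probe with vehicle and 100% = probe without protein; strong numbers were not always called active; many hits fall short of the cut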
# CSC inhib: blocks cancer stem cells; AID 2717; inhibition, % at 7.5 µM; 1.1% of 300,000 active; cancer stem cell-like cells viability, luminescence;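 active = mean at 75% or more and at least half the replicates too; tested in HMLE shEcad cells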;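 also: 0% = median of negative and 100% = median of positive control wells; the first replicate is given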
# Rce1 inh: blocks yeast Ras-converting enzyme; calls only; AID 2563; Q03530; 0.27% of 290,000 active; yeast membranes, quenched prenylated peptide cleavage fluorescence;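 active = fall in fluorescence gain of 50% or more versus controls, with final raw signal at or below 3038400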;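 also: plate controls were neutral control wells for no effect and wells lacking membranes for full effect; tested at 10 µM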
# Target sequence (Q03530 whole entry, looked up): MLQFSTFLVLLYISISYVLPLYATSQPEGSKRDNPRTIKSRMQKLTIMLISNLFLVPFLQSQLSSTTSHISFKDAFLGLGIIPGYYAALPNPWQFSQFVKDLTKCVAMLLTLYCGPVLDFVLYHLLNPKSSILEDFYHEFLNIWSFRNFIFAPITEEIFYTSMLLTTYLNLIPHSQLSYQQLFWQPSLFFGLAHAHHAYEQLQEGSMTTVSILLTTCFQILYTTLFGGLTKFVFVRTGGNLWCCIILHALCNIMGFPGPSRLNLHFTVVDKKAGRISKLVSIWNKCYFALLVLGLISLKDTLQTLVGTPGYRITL
# MT1-MMP act inh RFP: also measured in MT1-MMP act inh; calls as there; RFP signal change, %; measured here: RFP expression control read;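 0 = vehicle wells; hits needed this value within 50% of zero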
# An asterisk follows results filed as active; i = inactive; nt = no result given; & = joins results of further samples; [ ] = another dose, or the depositor's remark.
SMILES,Env fusion inh,MT1-MMP act inh,MT1-MMP act inh RFP,PABP polyA inh,UUG fidelity,eIF4H inh,CSC inhib,Rce1 inh
CCOCc1nnc(NC(=O)C2CCN(C(=O)C3CC(=O)N(c4ccc(C)cc4)C3)CC2)s1 (configuration not stated),-4,-4,-2,7,-6,-8,nt,i
CCOC(=O)C1CCN(C(=O)c2ccc3c(=O)n4nc(Nc5ccccc5CC)sc4nc3c2)CC1,10,2,-10,nt,-3,nt,nt,nt
O=C(CCc1nnc(COc2ccccc2)o1)NCc1ccccc1C(F)(F)F,3,-1,3,-3,nt,1,4,i
CCN1CCN(c2ccc(NC(=O)c3ccc4c(c3)OCO4)cc2)CC1,-34,-1,-2,-2,-19,1,-10,i
CCOC(=O)C1(CCc2ccccc2)CCN(C(=O)CCn2cncn2)CC1,-13,-4,-2,-3,nt,-11,-13,i
O=C(CSc1nc2ccccc2c(=O)n1CC1CCCCC1)N1CCOCC1,nt,-2,-4,-4,6,4,12,i
CCCC(=O)Nc1ccc(C(=O)O)cc1NC(=O)CCC,-15,10,8,-4,-5,-2,-2,i
CSc1nc(N)nc2c1ncn2CC(=O)N[C@H](CO)Cc1c[nH]c2ccccc12,-13,2,2,nt,-1,nt,nt,nt
COc1ccc(/C=C/C(=O)OCC(=O)NCc2ccccc2)cc1OC,4,0,-3,nt,-29,nt,42,nt
O=C(Nc1nccs1)C1CCN(S(=O)(=O)c2ccc(Cl)c(C(F)(F)F)c2)CC1,nt,-4,-3,7,nt,-6,-14,i
CCNc1nc(NCC)n2c(SCC(=O)Nc3ccccc3OC(F)F)nnc2n1,-13,3,0,nt,-19,nt,nt,nt
CCN(Cc1ccccc1)S(=O)(=O)c1ccc(C(=O)N(CCCN(C)C)c2nc3cc(OC)ccc3s2)cc1,nt,4,-2,nt,nt,nt,34,i
OCC[C@@H]1C[C@@H](O)[C@H](O)[C@@]2(CCCO2)O1,-14,-1,-2,nt,-17,nt,-6,i
Cn1c(SCC(=O)Nc2ccccc2[N+](=O)[O-])nnc1C(F)(F)F,-4,0,1,-3,nt,3,-8,i
COCCOC(=O)C1=C(C)NC(=O)N(C(C)=O)C1c1ccc(Cl)cc1 (configuration not stated),-11,0,2,-5,-17,-12,nt,i
Cc1cccc(NC(=O)c2cc3ccccc3nc2C)c1,-3,-3,1,25,-2,21,nt,i
CN(c1ccccc1C(=O)N1CCN(c2cccc(Cl)c2)CC1)S(C)(=O)=O,12,5,-6,3,1,-8,-5,i
Cc1ccccc1-n1c(SC(C)C(=O)N2CCN(C)CC2)nc2ccccc2c1=O (configuration not stated),nt,0,3,0,-2,-8,-8,i
COc1ccccc1NC(=S)NC1CCCC1,-6,-1,-2,nt,nt,nt,-6,i
CN(C)c1nc(OCCNC(=O)Nc2ccccc2)nc(N2CCCCC2)n1,21,-4,-5,6,nt,-3,-25,i
O=C(NCc1ccccc1)c1cccc(NC(=O)c2ccccc2)c1,13,3,-1,nt,6,nt,nt,nt
c1ccc(-c2nnc3ccc(N4CCCC4)nn23)cc1,-14,0,2,1,-13,0,-18,i
CN1CCN(C(=O)c2ccccc2Nc2ccc(SC(F)F)cc2)CC1,-5,-2,-1,10,5,-1,-6,nt
CC(C)(C)c1ccc(C(=O)NNC(=O)c2cccc(-n3cnnn3)c2)cc1,-1,1,-1,3,nt,-7,-7,i
N#CC1=C(N)SC(C(=O)c2ccccc2)C1c1cccs1 (configuration not stated),-17,-3,-3,22,-12,8,2,i
Cc1sc2ncn(CC(=O)NCCCC(=O)N3CCCCC3)c(=O)c2c1C,-2,1,4,8,-3,1,-8,i
Cc1ccccc1C(=O)Nc1ccc(S(=O)(=O)Nc2onc(C)c2C)cc1,11,6,6,4,-15,5,-10,i
CCOc1ccc(NS(=O)(=O)c2ccc(-c3coc(C)n3)cc2)cc1,-4,1,1,2,-5,3,-11,i
Cc1nc(S/C(=C\c2ccc(OCc3ccccc3Cl)cc2)C(=O)O)n[nH]1,nt,1,5,-1,2,20,-5,nt
CCn1c(-c2cccc(S(=O)(=O)N3CCCC3)c2)n[nH]c1=S,0,2,1,3,nt,-7,3,i
CCCOc1ccc(C(=O)NCc2ccco2)cc1,-49,0,7,-13,-19,-12,-11,i
COc1ccccc1-c1cc(NC(C)=O)c2ncc(-c3cccc(C(F)(F)F)c3)n2c1,-1,-2,-1,nt,-21,nt,nt,nt
C[C@H]1CN([C@@H](C)CO)C(=O)Cc2cc(NC(=O)Cc3ccccc3)ccc2O[C@H]1CN(C)C(=O)Nc1cccc2ccccc12,20[16.7 µM],nt,nt,nt,0&-3,nt,5,nt
COc1ccccc1NC(=O)Nc1nc(CC(=O)N2CCN(c3ccc(F)cc3)CC2)cs1,23,0,-11,nt,-10,nt,5,i
O=C(NC(Cc1cccc(F)c1)C(=O)O)C1CCCCC1 (configuration not stated),4,-1,1,nt,-2,nt,-5,nt
O=C(CNc1cccc(S(=O)(=O)N2CCCC2)c1)Nc1cccc(C(F)(F)F)c1,nt,-2,-26,nt,-19,nt,-17,nt
COc1ccc(Cc2nnc(NS(=O)(=O)c3ccccc3)s2)cc1,-9,-1,1,-5,-8,-10,2,i
NS(=O)(=O)c1ccc(CCNC(=O)CSc2nc3c(sc(=S)n3-c3ccccc3)c(=O)[nH]2)cc1,5,1,-1,nt,6,nt,nt,nt
CCc1nnc(NC(=O)C2CCN(c3ncnc4sc(C)c(C)c34)CC2)s1,5,-4,-8,nt,6,nt,-3,nt
CC1CN(Cc2nc3c(c(=O)[nH]c(=O)n3C)n2CCN2CCOCC2)CC(C)O1 (configuration not stated),-1,5,1,-8,-10,2,-13,i
COc1cccc(N2CC(C(=O)Nc3nnc(SCc4ccccn4)s3)CC2=O)c1 (configuration not stated),0,3,0,4,-13,3,-14,i
COc1ccc(C(C#N)CC(=O)c2ccc(OCc3ccccc3)c(OC)c2)cc1OC (configuration not stated),-1,2,-12,nt,-20,nt,nt,nt
O=C(NCC(c1cccnc1)N1CCOCC1)Nc1ccccc1 (configuration not stated),-9,7,7,-6,-15,-14,-4,i
COC(=O)c1c(C)[nH]c(C(=O)CN2C(=O)C3CC=CCC3C2=O)c1C (configuration not stated),-33,-3,2,nt,-11,nt,-20,nt
COC(=O)C1=CN(c2ccc(OC)cc2)C=C(C(=O)OC)C1c1cccc(F)c1,14,-11,-11,-3,6,-11,29,i
CN(C)c1ccc(CNC(=O)CN(C)S(=O)(=O)c2cccc3cccnc23)cc1,-16,-4,2,5,-3,5,-17,i
Cc1c(NC(=O)C2CCN(S(=O)(=O)c3ccccc3)CC2)c(=O)n(-c2ccccc2)n1C,nt,3,3,2,nt,8,nt,i
COc1ccc(C2CC(=O)c3cnc(NC(=O)c4ccccc4)nc3C2)cc1OC (configuration not stated),9,-1,3,15,-20,-6,nt,i
Cc1ccc(-c2csc(N(CC3CCCO3)C(=O)c3ccco3)n2)cc1 (configuration not stated),9,-2,-15,-4,nt,-4,61,i
COc1ccc(C2=NOC(CNC(N)=S)C2)cc1 (configuration not stated),-19,2,-1,-1,nt,3,-3,i
O=C(NC1CCCC1)C(c1cccs1)N(C(=O)c1ccco1)c1ccc2c(c1)OCCO2 (configuration not stated),nt,0,-2,4,13,-1,-4,i
COc1ccc([C@H]2C[C@H](n3cc(-c4ccc(F)cc4)nn3)[C@@H](O)CN2Cc2cccs2)cc1,-13,1,-1,nt,-1,nt,nt,nt
CCOC(=O)/C(C#N)=C/Nc1ccsc1C(=O)OC,9,-1,-5,7,-7,-8,9,i
COc1cc(OC)c2c(=O)c(OC)c(-c3ccc(OC)c(OC)c3)oc2c1,nt,3,5,2,-15,-2,-3,i
O=C(Cc1ccc(Cl)cc1)NCCS(=O)(=O)N1CCN(c2ccccc2F)CC1,-11,-2,-12,nt,-7,nt,-5,i
COc1ccccc1NC(=O)CSc1nn2c(=O)c(C)nnc2s1,-4,-1,2,-2,-20,-11,2,i
FC(F)(F)c1ccc(-c2noc(CN3CCCN(C4CCCCC4)CC3)n2)cc1,23,-2,0,3,1,-1,106*,i
CC(=O)COc1ccccc1OC(=O)c1ccco1,9,-2,0,-3,-21,-1,-12,i
Cc1ccc2cccc(OCc3ccc(F)cc3)c2n1,-4,-3,0,9,-17,6,0,i
COc1ccccc1C(=O)NCc1ccncc1,7,2,5,8,-2,5,-9,i

# Further entries follow.
SMILES,Env fusion inh,MT1-MMP act inh,MT1-MMP act inh RFP,PABP polyA inh,UUG fidelity,eIF4H inh,CSC inhib,Rce1 inh
COc1cc(C2C(C(C)=O)=C(O)C(=O)N2CCN2CCOCC2)ccc1O (configuration not stated),nt,2,2,3,-19,-1,-21,i
CCCCN(C)C(=O)Cn1nc(-c2ccc(Cl)cc2)ccc1=O,16,0,-2,2,12,2,2,i
Cc1ccc(NC(=O)N2CCc3ccccc3C2)c(C)c1,-31,-4,-1,2,-18,1,-3,i
COc1ccc(N2CCN(C(c3cccs3)C(C)NC(=O)C(=O)N3CCCCC3)CC2)cc1 (configuration not stated),2,-1,0,5,-12,4,-4,i
COc1ccc(N2CCN(C(CNC(=O)c3ccco3)c3ccco3)CC2)cc1 (configuration not stated),nt,6,-1,nt,-7,nt,1,i
CCCCCCc1nc2ccccc2c(=O)n1NC(=O)c1c(O)c2cccc3c2n(c1=O)CCC3,nt,nt,nt,8,nt,9,nt,i
Cc1nc(CC(C)C)cc(C(=O)N2CCCC(CNS(=O)(=O)c3cccs3)C2)n1 (configuration not stated),13,3,1,-1,nt,0,-3,i
Cc1nnc(SCc2ccc(C(=O)c3ccc(Cl)cc3)o2)n1-c1ccccc1,nt,-3,-4,5,-10,-6,-9,i
Cc1cc2cc(C(c3nnnn3Cc3ccco3)N3CCCCC3)c(=O)[nH]c2cc1C (configuration not stated),nt,-31,4,54*,3,57*,0,i
CCCCN1C=C(C(=O)OC)C(c2ccccc2Cl)C(C(=O)OC)=C1,-2,3,-9,7,nt,-11,14,i
O=C(NN1C(=O)c2ccccc2C1=O)c1ccccc1[N+](=O)[O-],7,2,1,1,nt,7,2,i
COc1ccccc1C(=O)NC(=O)COC(=O)c1cnc(C)cn1,-10,nt,nt,nt,6,nt,-6,i
CCOC(=O)C1C(C)N=C2SCC(=O)N2C1c1cccc(Br)c1 (configuration not stated),nt,10,3,2,1,-10,-8,i
Cc1ccc(-n2ncc(C#N)c2/N=C/N(C)C)cc1,nt,-1,3,7,4,-10,-10,i
CCOC(=O)Nc1c(C)n(C)n(-c2ccccc2)c1=O,18,-2,-2,-5,-1,12,12,i
CN(C)C=Nc1ccc2nc3c(cc2c1)[nH]c1ccccc13,-198,16,2,24,nt,7,15,i
Cn1c(=O)c(C(=O)CSc2ccccc2)c(N)n(Cc2ccccc2)c1=O,0,-1,-5,-6,nt,-3,16,i

# Shown with values under each structure: part of the list above
# Below each SMILES – Env fusion inh | MT1-MMP act inh | MT1-MMP act inh RFP | PABP polyA inh | UUG fidelity | eIF4H inh | CSC inhib | Rce1 inh
COCCOC(=O)C1=C(C)NC(=O)N(C(C)=O)C1c1ccc(Cl)cc1 (configuration not stated)
 : -11 | 0 | 2 | -5 | -17 | -12 | nt | i
Cn1c(SCC(=O)Nc2ccccc2[N+](=O)[O-])nnc1C(F)(F)F
 : -4 | 0 | 1 | -3 | nt | 3 | -8 | i
COc1ccc([C@H]2C[C@H](n3cc(-c4ccc(F)cc4)nn3)[C@@H](O)CN2Cc2cccs2)cc1
 : -13 | 1 | -1 | nt | -1 | nt | nt | nt
COc1cc(OC)c2c(=O)c(OC)c(-c3ccc(OC)c(OC)c3)oc2c1
 : nt | 3 | 5 | 2 | -15 | -2 | -3 | i
Cc1c(NC(=O)C2CCN(S(=O)(=O)c3ccccc3)CC2)c(=O)n(-c2ccccc2)n1C
 : nt | 3 | 3 | 2 | nt | 8 | nt | i
CCc1nnc(NC(=O)C2CCN(c3ncnc4sc(C)c(C)c34)CC2)s1
 : 5 | -4 | -8 | nt | 6 | nt | -3 | nt
FC(F)(F)c1ccc(-c2noc(CN3CCCN(C4CCCCC4)CC3)n2)cc1
 : 23 | -2 | 0 | 3 | 1 | -1 | 106* | i
